FGF22 binding – binders of human FGF22 protein, primary screen, FGF22 synaptogenesis inhibitor project, biophysical, thermal shift, single point | hit rate 1.5% among 340,000 | Fibroblast growth factor 22 (Homo sapiens), Q9HCT0 | calls only at 9.99 µM | AID 651658, 2012 | recombinant FGF22 thermal shift, SYPRO orange fluorescence; percent of sucrose octasulfate shift, DMSO zero;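 active = melting point raised past a set limit in the mean and every replicate; inconclusive = no clear call; three in four hits are not shown here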
Target sequence (Q9HCT0 whole entry, looked up): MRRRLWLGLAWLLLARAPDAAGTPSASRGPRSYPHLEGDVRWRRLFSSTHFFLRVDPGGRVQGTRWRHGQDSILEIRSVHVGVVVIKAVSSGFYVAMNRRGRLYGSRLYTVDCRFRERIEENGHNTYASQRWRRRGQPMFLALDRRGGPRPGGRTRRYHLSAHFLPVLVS
HNF4A DNA FP – change in binding of human HNF4A to DNA, primary screen, biochemical, fluorescence polarization, FITC-DNA. Hepatocyte nuclear factor 4-alpha (Homo sapiens), P41235. hit rate 0.3% among 360,000. AID 1224865, 2016. activity change, % at 10 µM. 1 h; in the data active = activity change above about 30%, passing the limit was not always enough;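 also: controls were the assay level and a saturating level of protein; the project sought stronger binding though the title names inhibitors; some compounds called inactive have numbers as strong as hits; positive values seem to mean higher polarization but the record does not say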
Target sequence (P41235 whole entry, looked up): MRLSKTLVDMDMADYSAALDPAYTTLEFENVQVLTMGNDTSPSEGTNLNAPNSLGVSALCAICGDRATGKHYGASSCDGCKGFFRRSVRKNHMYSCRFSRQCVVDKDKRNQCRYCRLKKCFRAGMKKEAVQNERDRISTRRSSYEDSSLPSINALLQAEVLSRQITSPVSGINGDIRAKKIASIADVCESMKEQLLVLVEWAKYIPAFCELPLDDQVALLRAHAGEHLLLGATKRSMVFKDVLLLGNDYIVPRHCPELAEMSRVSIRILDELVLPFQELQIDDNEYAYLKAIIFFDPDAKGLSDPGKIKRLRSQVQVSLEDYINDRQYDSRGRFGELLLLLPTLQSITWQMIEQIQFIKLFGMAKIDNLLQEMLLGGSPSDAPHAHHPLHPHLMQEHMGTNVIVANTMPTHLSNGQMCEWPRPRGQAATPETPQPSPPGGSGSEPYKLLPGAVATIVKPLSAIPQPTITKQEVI
Ecoli growth – E. coli growth inhibition, primary screen, OD600. hit rate 0.21% among 330,000. Escherichia coli growth, 23 h; hits give low values. OD600 absorbance (test concentration not listed);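 active = OD600 absorbance below the run mean of sample wells minus 3.6 SD, in any replicate, cut at about 0.56 in these data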;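 also: stock transfer was 300 nL into about 60 µL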
AF4-AF9 inh – inhibitors of AF4 peptide binding to AF9, primary screen, biochemical, AlphaScreen, biotin-AF4 peptide, FLAG-AF9, single point; Protein AF-9 (Homo sapiens), P42568; inhibition, % at 10 µM; hit rate 0.47% among 350,000; AID 651704, 2012;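 active = every replicate reaching a set inhibition limit, whatever the replicate mean, cut at about 25% in these data; inconclusive = mean inhibition reaches that limit but some replicates miss it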;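 also: 0% = plate neutral control median and 100% = total signal loss; the record names both 10 and 1 µM as test concentration; the first replicate is given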
RanGTP-Imp inh – inhibitors of RanGTP-importin-beta interaction, primary screen, biochemical, FRET, CFP-Ran, YFP-importin-beta, homogeneous | cell-free CFP-Ran/YFP-importin-beta FRET ratio | inhibition, % (concentration not given with the values) | hit rate 1.1% among 300,000 | AID 2216, 2009;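 active = most replicates above 15%; inconclusive = exactly half above 15%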;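 also: 0% = DMSO wells and 100% = Ran loaded with GDP instead of GTP; wells of about 40 µL received 100 nL stock; the first replicate is given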
Vif A3G – inhibitors of Vif binding to APOBEC3G peptide, primary screen, biochemical, TR-FRET, GST-Vif 1-94, biotin-A3G peptide, dose response retest (AID 1117319); Virion infectivity factor (Human immunodeficiency virus type 1 group M subtype B (isolate …; hit rate 0.57% among 260,000; inhibition, %; hits with a dose series show IC50 in µM; TR-FRET GST-Vif / biotin-A3G peptide binding; higher % means a stronger effect; test concentration not given here; strong numbers were not always called active;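 active = above the screen mean plus three standard deviations and confirmed in dose response; inconclusive = results disagree or hit not tested in dose response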;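 also: Vif residues 1-94 fused to GST binding biotinylated APOBEC3G peptide 110-148; 0% = full assay without inhibitor and 100% = GST in place of GST-Vif; retest series ran down from 100 µM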
UCH37 inh – inhibitors of human UCH37 deubiquitinase, primary screen, biochemical, Ub-AMC cleavage, fluorescence; Ubiquitin carboxyl-terminal hydrolase isozyme L5 (Homo sapiens), Q9Y5K5; purified proteasome/UCH37; inhibition, % (concentration not given with the values); hit rate 0.33% among 330,000; AID 588478, 2011;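 active = mean of two replicates above 20%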;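 also: 0% = compound-free wells with enzyme and 100% = wells lacking proteasome; stock transfer was 100 nL into about 20 µL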
Target sequence (Q9Y5K5 whole entry, looked up): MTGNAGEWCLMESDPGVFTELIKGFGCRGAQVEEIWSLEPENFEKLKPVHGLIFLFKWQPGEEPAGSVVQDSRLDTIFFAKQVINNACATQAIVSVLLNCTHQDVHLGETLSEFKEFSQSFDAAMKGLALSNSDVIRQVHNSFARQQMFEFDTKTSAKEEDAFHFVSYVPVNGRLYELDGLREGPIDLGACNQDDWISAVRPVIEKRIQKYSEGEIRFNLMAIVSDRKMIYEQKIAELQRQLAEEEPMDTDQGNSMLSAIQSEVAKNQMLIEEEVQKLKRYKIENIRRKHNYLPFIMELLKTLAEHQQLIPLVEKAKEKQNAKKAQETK
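assay system = human UCH37 enzyme supplied as purified proteasome complex | amount = proteasome at 0.15 nM in the dispensed enzyme solution | schedule = 30 min compound-proteasome preincubation then 25 min substrate reaction, room temperature | measured by = fluorescence, ex 355 nm, em 460 nm | benchmarks = no-proteasome wells (full inhibition) and compound-free wells (no inhibition)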
Starred values were filed as active, the others as inactive; i = inactive; ? = inconclusive; nt = no result given; & = joins results of further samples.

SMILES	FGF22 binding	HNF4A DNA FP	Ecoli growth	AF4-AF9 inh	RanGTP-Imp inh	Vif A3G	UCH37 inh
N#Cc1ccc(C(=O)Nc2ccc([N+](=O)[O-])cc2)c(F)c1	nt	-1.3	0.66	-12.5	-0.6	nt	2.4
CCN1C(=O)N(c2cccc3ccccc23)C(C)=CC1(C)C	nt	1.1	0.722	nt	-1.9	16.9%	3.1
Cc1ccc(NC(=O)CSc2nncn2N)cc1C	i	4.8	0.684	0.5	-2.0	-4.2%	1.2
CCOCC(=O)Nc1nnc(Cc2ccc(OC)cc2)s1	nt	0.0	0.669	nt	-0.1	-0.9%	3.4
CCCCC(=O)Nc1cc(C)c(NC(=O)c2ccco2)cn1	i	1.7	0.668	-10.3	12.7	nt	2.8
CCCCCCC(=O)N1C/C=C\C(c2ccc(OC)cc2)N(Cc2ccc(F)cc2)C(=O)[C@H]1Cc1ccccc1 (stereo partly drawn)	i	nt	nt	-6.2	1.4	nt	-0.5
O=C(O)CNC(=O)c1nc(-c2ccccc2)n(-c2ccccc2)n1	nt	3.3	0.638	nt	-1.9	2.9%	1.6
O=C(CCc1ccc(S(=O)(=O)N2CCOCC2)cc1)N1CCN(Cc2ccc3c(c2)OCO3)CC1	nt	1.2	0.64	nt	2.2	-2.7%	1.0
CS(=O)(=O)N1CCc2cc(S(=O)(=O)Nc3ccc4oc5c(c4c3)CCCC5)ccc21	nt	-6.7	0.64	nt	0.4	14.9%	5.2
Cc1ccnc(NC(=O)c2ccccc2NC(=O)c2ccc(Cl)cc2Cl)c1	i	0.8	0.688	2.1	7.1	nt	-4.1
C/C(=N\NC(=O)c1ccc2c(c1)OCO2)c1ccc(NC(=O)CCCC(=O)O)cc1	i	0.0	nt	1.3	1.1	nt	nt
C/C(=C\CCC1(C)C2CC3C(C2)C31C)C(=O)O (stereo not drawn)	i	4.1	0.642	-2.9	-3.8	nt	0.8
Cc1ccccc1CSCC(Nc1ccc(C(=O)O)cc1[N+](=O)[O-])C(=O)O (stereo not drawn)	nt	1.1	0.664	nt	-0.6	3.8%	7.3
CC1(C(=O)NCCN2CCOCC2)C=CC2(CCCCC2)N1C(=O)c1ccccc1 (stereo not drawn)	i	-1.7	0.64	2.7	1.7	0.3%	2.2
C/C(=N\NS(=O)(=O)c1ccc(Cl)c([N+](=O)[O-])c1)c1cc2ccccc2o1	nt	-2.5	nt	nt	?	17.7%	nt
CCOC(=O)C(Cc1ccccc1)C(=O)Nc1ccccc1C (stereo not drawn)	nt	-0.5	0.697	nt	2.2	1.4%	1.8
CCC(=O)Nc1ccc(Nc2ccccc2)cc1	nt	-2.1	0.694	nt	-0.4	24.6%	2.0
Cc1c(CN(C)C(=O)c2ccc(Br)o2)cnn1C	nt	1.9	0.667	nt	0.3	-7.7%	-0.4
CCCCn1nc(C(=O)Nc2ccc(S(=O)(=O)Nc3ncccn3)cc2)c2ccccc2c1=O	i	-0.6	0.716	-2.0	2.6	-1.3%	4.4
Cc1c(O)cc2n(c1=O)-c1ccccc1C2(C)C	nt	-2.3	0.713	nt	-1.3	-0.8%	2.7
CCOC(=O)N1CCN(C(=O)Nc2ccccc2Cl)CC1	i	-4.3	0.69	-6.0	2.9	-2.6%	2.8
Cc1cc(NC(=O)CSc2ccc(Cl)cc2)no1	nt	-0.8	0.664	nt	-2.0	3.5%	2.1
O=C(NCCc1cn[nH]c1)C1CCC(=O)N(CCc2cccc(F)c2)C1 (stereo not drawn)	i	-0.7	0.638	-1.5	1.4	nt	-0.3
C[n+]1cn(Cc2ccc(C#N)cc2)c2ccccc21	i	-0.1	0.637	0.6	1.2	1.8%	5.2
CC1CC(C)CN(Cc2nc(N)nc(Nc3ccc4ccccc4c3)n2)C1 (stereo not drawn)	nt	0.4	0.66	nt	2.2	18.6%	3.6
O=C(NC1CCCCC1)C1CCN(c2nccs2)CC1	nt	-1.2	0.736	nt	?	-6.2%	4.3
COc1cccc(OC)c1C(=O)Nc1ccccc1NC(=O)c1c(OC)cccc1OC	i	1.2	0.648	0.2	?	-6.7%	2.3
COc1ccc(C(CNC(=O)CNC(=O)c2ccccc2Cl)N2CCCC2)cc1 (stereo not drawn)	i	4.3	0.644	7.8	1.4	7.1%	-3.0
C1=CCC(CN2CCN(C3CCCCCC3)CC2)CC1 (stereo not drawn)	i	3.4	0.683	2.1	-3.4	nt	3.5
CCOCCCNC(=O)C1CCN(S(=O)(=O)c2ccc3nc4c(c(C(=O)O)c3c2)CCCCC4)CC1	i	-1.4	0.689	0.3	-0.6	nt	4.4
COC(=O)c1ccc(-n2nnnc2SCC(=O)Nc2ccccc2OC)cc1	nt	-1.8	0.69	nt	3.4	-7.5%	3.8
CC1(Oc2cccc(F)c2)CCN(Cc2csc3ccccc23)C1 (stereo not drawn)	i	-0.3	nt	3.1	nt	nt	nt
COc1ccccc1CCNC(=O)c1ccc(NC(=O)CC2SC(N3CCCC3)=NC2=O)cc1 (stereo not drawn)	i	-2.4	0.722	8.7	-0.1	4.2%	4.4
O=C(c1ccco1)N1CCN(C(=O)c2cc(=O)[nH]c3ccccc23)CC1	i	-0.5	0.674	-3.8	nt	nt	-16.1
CC(=O)c1ccc(NC(=S)N2CC(C)CC(C)C2)cc1 (stereo not drawn)	i	4.2	0.678	2.8	0.5	nt	8.7
CCN(CC)c1ccc(/C=C2\C(=O)c3ccc(C(=O)O)cc3C2=O)cc1	nt	84.0*	0.706	nt	nt	10.3%	19.4
Cc1cc(C)n(-c2cc(N3CCN(S(=O)(=O)c4ccc5ccccc5c4)CC3)ccc2[N+](=O)[O-])n1	nt	-0.5	0.82	nt	?	2.3%	6.1
NCC(=O)NCC(=O)OCc1ccccc1	i	-1.4	0.706	0.0	-3.6	nt	1.1
COc1ccc(Cl)cc1NC(=O)c1cnccn1	i	0.0	0.678	-5.5	3.3	3.9%	2.7
COc1ccc(CCN(C)C(=O)C2CCCN(C3CCN(Cc4ccccc4)CC3)C2)cc1OC (stereo not drawn)	i	3.0	0.666	-1.5	2.1	nt	0.8
Cc1ccc(SCC(=O)OCC(=O)NC(C)c2ccc(Br)cc2)cc1 (stereo not drawn)	i	3.1	0.736	-3.3	-2.0	-7.1%	6.0
O=C(Nc1ccc(Cl)cc1)c1nc[nH]c1C(=O)N1CCc2ccccc2C1	i	-5.2	0.712	-3.5	nt	nt	6.1
Cc1nn(CC(=O)O)c(C)c1C	nt	1.1	0.686	nt	4.7	-2.2%	3.4
CCOC(=O)N/N=C/c1ccc(C)o1	nt	1.2	nt	nt	3.4	8.4%	nt
CC(=O)c1ccc(N2CCN(C(=O)c3ccc(OCc4c(C)noc4C)cc3)CC2)cc1	nt	1.8	0.715	nt	?	-23.2%	4.0
N=c1oc2cc(O)ccc2cc1C(=O)Nc1ccc(Cl)cc1	i	34.0	0.67	-3.8	170.4*	nt	-34.6
CCCOc1ccc(C(CC(=O)O)NC(=O)c2ccc3c(c2)OCO3)cc1 (stereo not drawn)	nt	2.0	0.729	nt	0.8	16.6%	3.1
C/C(N=Nc1nc2ccccc2s1)=N\Nc1ccccc1O	nt	-5.1	nt	-1.9	-0.9	?	nt
Cn1cnc2cc(NCc3cccs3)ccc21	i	4.2	0.626	1.6	2.0	nt	-1.5
Cc1ccc(C)c2[nH]c(=O)c(CCNC(=O)c3ccco3)cc12	nt	0.1	0.691	nt	2.4	-1.9%	-6.3
CCOc1ccc(-c2nnc3ccc(SCC(=O)N4CCN(c5ccccc5)CC4)nn23)cc1	i	7.8	0.696	4.5	nt	nt	-14.0
Cn1c(SCC(=O)N2CCOCC2)nnc1-c1cnccn1	nt	-1.1	0.715	nt	6.9	0.7%	1.5
CCN(CC)c1ccc(/C=N/N2CCN(Cc3ccc(C)cc3C)CC2)c(O)c1	nt	-1.8	nt	nt	2.2	3.3%	nt
CC(NC(=O)Nc1ccc(Cl)c(Cl)c1)C(c1ccccc1)N1CCOCC1 (stereo not drawn)	i	3.4	0.635	0.1	1.0	1.9%	4.8
Cc1ccccc1NP(=O)(c1ccccc1)c1nc2ccccc2s1 (stereo not drawn)	i	-0.2	0.709	-1.0	0.2	19.2%	6.9
Cc1ccc(S(=O)(=O)Nc2ccc(-n3cnnn3)cc2)cc1	i	-2.0	0.661	-9.5	2.7	nt	2.0
Cc1nnc(SCC(=O)N2CCC(C(=O)Nc3nccs3)CC2)n1Cc1ccccc1	nt	-3.9	0.686	nt	5.5	12.1%	4.0
COc1ccc(C2=Nc3ccccc3N(C(=O)c3ccc(C(F)(F)F)cc3)C2C(=O)Nc2ccc3c(c2)OCCO3)cc1 (stereo not drawn)	nt	2.0	nt	1.2	nt	nt	nt
CCCCOC(=O)c1ccc(NC(=O)c2ccc(F)cc2F)cc1	nt	2.4	0.633	nt	3.6	nt	1.0
CCC(=O)Nc1ccc(CCC(=O)N2CCCC2)cc1	i	3.5	0.659	1.4	-0.7	-7.4%	-0.6

Next structures
SMILES	FGF22 binding	HNF4A DNA FP	Ecoli growth	AF4-AF9 inh	RanGTP-Imp inh	Vif A3G	UCH37 inh
CCOC(=O)c1cnc2oc3ccccc3n2c1=O	i	4.4	0.631	-2.3	4.0	nt	-17.1
CS(=O)(=O)N(CC(O)CON=C1c2ccccc2-c2ccccc21)c1ccc(F)cc1 (stereo not drawn)	nt	-1.8	0.706	nt	2.7	-2.9%	1.7
O=C1c2ccccc2C2N1CCCN2C(=O)c1sc2ccccc2c1Cl (stereo not drawn)	i	3.4	nt	-1.2	nt	-5.3%	nt
CCOc1cc2[nH]c(=S)n(CCCN3CCOCC3)c(=O)c2cc1OCC	nt	-0.4	0.682	nt	-2.8	3.3%	7.2
CNC[C@H]1Oc2ccc(NC(=O)Nc3ccc4c(c3)OCO4)cc2C(=O)N([C@H](C)CO)C[C@@H]1C	i	1.4	nt	2.5&13.7	nt	nt	6.0
COc1ccccc1C(CNC(=O)c1ccc(C)c(S(=O)(=O)N2CCCCC2)c1)N(C)C (stereo not drawn)	i	2.9	0.689	-0.2	nt	-3.2%	1.7
CN1CC(=O)N2Cc3[nH]c4ccccc4c3C[C@H]2C1=O	i	-3.9	0.697	-0.3	-0.6	-1.0%	4.5
COc1cccc(-c2sc3ccc(OC)cc3c2C#CCC(C)O)c1 (stereo not drawn)	i	1.2	nt	2.3	nt	nt	nt
O=C(Oc1cccc2cccnc12)c1cccs1	nt	4.7	0.619	nt	6.7	-0.2%	1.0
COC(=O)CCC(=O)OC1(C)C(=O)C=C2C=C(C3CC3)N(c3cccc(C#N)c3)C=C2C1=O (stereo not drawn)	i	-5.2	0.676	-0.8	-1.6	11.9%	-6.7
Cn1c(=O)c(=O)n(C)c2cc(S(=O)(=O)CCC(=O)Nc3ccc(C(F)(F)F)cc3)ccc21	i	-0.9	0.671	2.2	7.0	1.3%	2.5
CCN1CCN(CCC(=O)Nc2ccc3c(c2)OCO3)CC1	nt	4.0	0.704	nt	2.3	26.4%	-0.2
Nc1ccc2nc(SCc3ccc([N+](=O)[O-])cc3)sc2c1	i	-0.8	0.724	3.3	4.6	-5.4%	3.0

As a short view, some entries already given:
SMILES	FGF22 binding	HNF4A DNA FP	Ecoli growth	AF4-AF9 inh	RanGTP-Imp inh	Vif A3G	UCH37 inh
CCOC(=O)c1cnc2oc3ccccc3n2c1=O	i	4.4	0.631	-2.3	4.0	nt	-17.1
CS(=O)(=O)N(CC(O)CON=C1c2ccccc2-c2ccccc21)c1ccc(F)cc1 (stereo not drawn)	nt	-1.8	0.706	nt	2.7	-2.9%	1.7

Not all compounds are listed; count on the stated rates, not on these rows.
